Screening results as filed in PubChem BioAssay.
NPYLR7 agonist = mosquito NPYLR7 agonism | HEK293T NPYLR7/Galpha15, GCaMP6s calcium fluorescence | activation, % at 10 µM | 270,000 compounds, 0.15% hits; in the data active = activation above about 40%;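 also: 0% = vehicle and 100% = reference agonist at the receptor; some compounds past the cut are filed as inactive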
NPYLR7 agonist max-min = second read-out of NPYLR7 agonist, no call of its own (marks repeat the call); activation, %; measured here: Max-Min RFU normalised activation; some inactives read as strong as hits;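 span of the calcium signal over five minutes; 0% = vehicle and 100% = native peptide agonist; compound fluorescence can raise it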
Numbers without * were called inactive. This is a subset (hit frequency here may not be typical).

Results follow in this order: NPYLR7 agonist | NPYLR7 agonist max-min
COC(=O)C1=C(C)N(C)C(=O)NC1c1ccccc1 (stereo not drawn)
 : -7.7 | -11.3
O=C(CSc1ccccc1)Nc1cccc(C2SCC(=O)N2c2ccc(C(F)(F)F)cc2)c1 (stereo not drawn)
 : 2.8 | 9.5
COc1ccc(C(=O)NC(C)c2csc(C)n2)cc1OC1CCN(C(C)=O)CC1 (stereo not drawn)
 : 2.5 | 0.5
CN1CCN(c2ncc(C(=O)NCC3CC3)s2)C1=O
 : -4.2 | -3.4
CCCn1ccnc1CN1CCCN(C(=O)c2ccco2)CC1
 : 19.2 | 7.5
COc1ccc(CNC(=O)NCC2CN(c3cccc(Cl)c3)C(=O)O2)cc1 (stereo not drawn)
 : 3.6 | 7.5
COc1ccc2cc(CNC(=O)C3(C)CC(=O)N=C4C=CC=CN43)ccc2c1 (stereo not drawn)
 : 4.7 | 2.6
CCn1cc(NC(=O)c2cc3ccc(C(C)(C)C)cc3[nH]2)ccc1=O
 : 1.9 | 0.5
CN(C)c1ccc(C=Nc2sc3c(c2C#N)CCC3)cc1
 : 4.5 | 4.6
OCc1csc(COc2ccc(Cl)cc2CNCc2ccc(F)cc2)n1
 : 19.9 | 24.3
O=C(COc1ccccc1)N1CCCN(C(=O)CN2CCc3sccc3C2c2ccc(Cl)cc2)CC1 (stereo not drawn)
 : 14.9 | 5.7
CCOc1ccc(C(=O)Nc2c3c(nn2-c2cccc(C)c2C)CS(=O)C3)cc1 (stereo not drawn)
 : -0.6 | -3.0
CC1(C(=O)NS(=O)(=O)c2cccc(Cl)c2)CCN1C(=O)C/C=C/c1ccccc1 (stereo not drawn)
 : 1.8 | 0.4
CC(=O)NC(CCS(C)(=O)=O)C(=O)Nc1cc(C)on1 (stereo not drawn)
 : 13.2 | 7.0
O=C(c1nc2ccccc2s1)N1CCN(CCc2nc(-c3cccs3)cs2)CC1
 : 0.2 | -0.8
C=CCn1c(SCC(=O)Nc2ccccc2)nc2scc(-c3ccco3)c2c1=O
 : -1.1 | -4.3
CCCCN(CC(=O)N(Cc1cccn1C)C1CC1)C(=O)Nc1ccc(OC)cc1
 : -2.6 | 7.3
COc1ccc(N2C(=O)C3N=NN(Cc4cc(C)ccc4C)C3C2=O)cc1 (stereo not drawn)
 : -5.7 | -12.1
Cc1cccn2c(=O)nc(SCC(=O)N(C(C)C)C(C)C)nc12
 : 2.4 | 1.0
CC(=O)Nc1cccc(-c2ccc3nnc(C)n3n2)c1
 : -11.3 | -4.2
CCOCCCN(Cc1nc(C(=O)OC)cs1)C(=O)Nc1cc(C(F)(F)F)cc(C(F)(F)F)c1
 : -9.6 | -11.6
Cc1cc(CN(C)S(=O)(=O)Cc2c(Cl)cccc2Cl)no1
 : -2.8 | -3.6
COc1ccccc1OCc1cc(C(=O)N2CCN(C)C(c3ccccc3)C2)no1 (stereo not drawn)
 : 1.6 | -1.6
O=[N+]([O-])c1ccc(Nc2ccccc2)c(Cl)c1
 : -1.1 | -4.2
O=C(C=Cc1cccs1)NNC(=O)c1ccccc1F
 : 11.2 | 3.0
Cc1oc(-c2cccs2)nc1CN1CCN(C(=O)c2ccco2)CC1
 : 17.7 | 2.7
Cc1cc(S(=O)(=O)Nc2ccccc2C(=O)N2CCC(C(N)=O)CC2)c(C)s1
 : 7.7 | 2.7
Nc1nnc(SCC2CC2)s1
 : -13.1 | -13.4
O=C(Cc1ccccc1)Nc1nnc(SCc2ccccc2)s1
 : 18.5 | 6.8
N#CC(=Cc1ccco1)c1nc2ccccc2[nH]1
 : 0.0 | -2.2
Cc1nn(CC(=O)N(C)C)c(C)c1[N+](=O)[O-]
 : 4.6 | 2.4
COc1ccc(C(=O)N2CC[C@@H](c3ccc(F)cc3)[C@H](O)C2)c(O)c1
 : -1.4 | -0.4
CCN1CCc2ccc(NC(=O)N(C)Cc3c(C)noc3C)cc21
 : 6.9 | 3.3
C=C(C)C(O)(C(=C)C)c1ccc(CN(CCC)Cc2ccc(OC)cc2)o1
 : -2.1 | -0.2
CCOC(=O)CCCC(=O)N1CCC(c2cn(C)c3ccccc23)CC1
 : 33.3 | 25.6
CC1=Nc2ccccc2NC(C)(C)C1
 : 2.7 | 1.7
CCCc1ccc(C(=O)CCC(=O)N2CCCN3CCCC3C2)cc1 (stereo not drawn)
 : 2.2 | -1.4
O=C(N1CC23C=CC(CC2CC12CCCCC2)O3)C(F)(F)F (stereo not drawn)
 : 3.9 | 1.9
CCCCOCCOCC(=O)N1CCC(n2cnc3ccccc32)CC1
 : 2.3 | -0.1
CCOc1ccc(N(CC(=O)N2CCC(C)CC2)S(=O)(=O)c2ccc(SC)cc2)cc1
 : -5.5 | -9.4
CC(C)N(CC(N)=O)CC(=O)Nc1ccc2oc3ccccc3c2c1
 : -2.7 | -2.8
CCCCN(CC(=O)N1CC(=O)N(c2ccc(Cl)cc2)C1)C(=O)c1ccccc1C
 : 0.7 | 14.8
CCCCSc1nnc2c(n1)OC(/C=C/c1ccccc1)Nc1ccccc1-2 (stereo not drawn)
 : 4.8 | -2.5
CC(C)C(C)(C#N)NC(=O)COc1ccc(Br)cc1Br (stereo not drawn)
 : 6.8 | 4.2
Cc1nc(CNC(=O)N2CCC(Cc3ccccc3)C2)oc1C (stereo not drawn)
 : 4.0 | 4.1
CCOC(=O)c1c(N)sc(C(=O)Nc2ccc(OC)cc2OC)c1C
 : -7.1 | -13.0
CCCCN(CC(=O)N(CCc1c[nH]c2ccccc12)Cc1ccc(F)cc1)C(=O)Nc1cccc(C#N)c1
 : 21.4 | 21.8
Cc1ccsc1-c1cn(CC(CO)Cc2ccco2)nn1 (stereo not drawn)
 : 22.1 | 16.0
COc1ccccc1/C=C/C=C1\N=C(c2ccc(Br)cc2)OC1=O
 : -2.6 | -7.0
CN(c1cccc2ccccc12)S(=O)(=O)c1ccc2c(c1)CCC2
 : 2.5 | 2.7

Remaining list, next part:
Results follow in this order: NPYLR7 agonist | NPYLR7 agonist max-min
CC(C)Cc1cn(C2CCN(c3cncc(C(=O)N4CCCC4)n3)CC2)nn1
 : 6.2 | 3.4
O=C(NC1CCCCC1)C1CC(=O)N(C2CCCCCC2)C1 (stereo not drawn)
 : 5.3 | 1.8
CCCn1c(=O)n(C)c(=O)c2c(SCC(=O)N(CC)C3=CCCC3)nc(C(C)C)nc21
 : 6.0 | 1.9
CC(C)(C)c1ccc(C(=O)Nc2ccc(-c3cccc(-c4ccc5c(c4)NC(=O)CO5)n3)cc2)cc1
 : 5.2 | 2.4
CC(C)OCc1ccc(CNC(=O)c2ccccc2F)cc1
 : 0.2 | 3.2
Cc1nnc(NC(C)c2ccc(N3CCN(C)CC3)cc2)c(C#N)c1C (stereo not drawn)
 : 3.2 | 5.1
CCn1c(SCC(=O)N/N=C\c2cccn2C)nc2ccccc21
 : 0.5 | 3.2
Cc1ccc2[nH]c3c(=O)n(CC(=O)N4CCN(c5ccccn5)CC4)cnc3c2c1
 : 1.0 | -0.5
Cc1ccc(C(=O)NCc2ccc3[nH]c(C)cc3c2)cc1
 : 4.8 | 0.4
CCOC(=O)C1CCCN(CC(=O)N2N=C(c3ccc(OC)cc3OC)CC2c2ccc(OC)cc2)C1 (stereo not drawn)
 : -0.7 | 8.7
CCn1c(C2CCCN(C(=O)NCc3ccc(Cl)cc3)C2)n[nH]c1=O (stereo not drawn)
 : 8.6 | 9.0
O=S(=O)(NN=Cc1ccc2c(c1)OCCO2)c1ccc(Br)cc1
 : -9.1 | -11.5
CCc1nnc(NC(=O)CSc2nc(=O)n(CCN3CCOCC3)c3c2CCC3)s1
 : -2.3 | -6.8
Cc1ccc(S(=O)(=O)NCl)cc1
 : -8.3 | -9.8
c1cc(-c2nccn2CCC2CCCCO2)cc(-n2cccn2)c1 (stereo not drawn)
 : -3.5 | -7.6
CC(C)(C)NC(=O)c1cc2nc(-c3ccc(Cl)c(Cl)c3)cc(C(F)(F)F)n2n1
 : 18.0 | 7.9
COc1ccc(S(=O)(=O)N(CC(=O)N2CCc3sccc3C2c2ccc(Cl)cc2Cl)Cc2ccc(F)cc2)cc1 (stereo not drawn)
 : 26.7 | 45.3
CCN(CC)S(=O)(=O)c1cccc(C(=O)N2CCN(c3nccs3)CC2)c1
 : 0.2 | -1.9
O=S1(=O)NC(c2cccc(Br)c2)Nc2ccccc21 (stereo not drawn)
 : 19.6 | 9.0
C=CCNC(=O)C(C1CCCC1)N1CCN(C(=O)c2cccc([N+](=O)[O-])c2)CC1 (stereo not drawn)
 : -9.9 | -0.9
C=CCN1CC(c2nc3ccccc3n2CCOc2ccc(C(C)(C)C)cc2)CC1=O (stereo not drawn)
 : 4.5 | 8.0
COc1ccccc1N1CCN(C2CCCN(C(=O)c3ccccc3Cl)C2)CC1 (stereo not drawn)
 : 24.9 | 29.3
Cc1ccc(CN2CCC(CN(C)Cc3cc4ccccc4o3)CC2)o1
 : 15.5 | 2.6
COc1ccc(C(=O)N2C(C(=O)N3CCN(C)CC3)COC23CCN(C(=O)CC(C)(C)C)CC3)cc1 (stereo not drawn)
 : 1.7 | 10.3
CC1(C)NC(=O)N(CCOc2ccc(-c3ccccc3)cc2)C1=O
 : 11.4 | 8.4
COCCCN(Cc1csc(COc2ccccc2C)n1)C(=O)COC
 : 2.3 | 5.4
Cn1c(=O)[nH]c(=O)c2c1nc(Sc1ccccc1)n2Cc1ccccc1
 : 4.7 | 4.4
Cc1ccc(F)c(S(=O)(=O)NC(=O)C2(C)CCN2C(=O)Cc2ccsc2)c1 (stereo not drawn)
 : 0.0 | -0.9
Cc1cccc(N2C(=O)CSC2c2ccc(NC(=O)C3CC3)cc2)c1C (stereo not drawn)
 : -5.9 | -2.4
O=C(c1c(-c2ccc(Br)cc2)c2ccccc2[nH]c1=O)C(F)(F)F
 : -9.7 | -10.4
CCOc1ccc(C2Nc3ccccc3C(=O)N2Cc2ccco2)cc1 (stereo not drawn)
 : 15.2 | 6.6
OB(O)c1ccccc1-n1cccn1
 : 4.6 | 10.1
Cc1cc(C)c(NC(=O)Cn2c(-n3nc(C)cc3C)nc(C)cc2=O)c(C)c1
 : 4.0 | 1.7
COc1cccc(-c2nccc(C(F)(F)F)n2)c1OC
 : 4.7 | 3.5
CCCn1cnnc1CNC1CCN(c2ccc3c(c2)OCO3)CC1
 : 2.4 | 0.9
COc1ccccc1C(=O)NCC1CCC2(CC1)OCCO2
 : 1.7 | 0.4
CCN(Cc1ccc(OC)c(OC)c1)Cc1cc(Cl)c2c(c1)OCCO2
 : 8.5 | 5.7
C=CCn1c(SCC(=O)OCc2ccccc2)nnc1-c1ccc(OC)cc1
 : 8.0 | 15.7
C#CCn1c(O)c(N=NC(=O)CNC(=O)c2ccccc2OC)c2ccccc21
 : -3.5 | -7.8
CC1(C)CNCCN1Cc1cccc(C(=O)Nc2ccc(CCO)cc2)c1
 : -2.6 | -4.2

In the list so far, these contain a nitro group on carbon.
Results follow in this order: NPYLR7 agonist | NPYLR7 agonist max-min
O=[N+]([O-])c1ccc(Nc2ccccc2)c(Cl)c1
 : -1.1 | -4.2
Cc1nn(CC(=O)N(C)C)c(C)c1[N+](=O)[O-]
 : 4.6 | 2.4
C=CCNC(=O)C(C1CCCC1)N1CCN(C(=O)c2cccc([N+](=O)[O-])c2)CC1 (stereo not drawn)
 : -9.9 | -0.9

Carrying on.
Results follow in this order: NPYLR7 agonist | NPYLR7 agonist max-min
CC1=C(C(=O)Nc2ccc(Cl)cc2)C(c2cccc(Br)c2)NC(=O)N1 (stereo not drawn)
 : -17.7 | -23.9
Cc1cc(=O)[nH]c(-n2nc(C3CC3)cc2NC(=O)c2cccs2)n1
 : 2.0 | 5.0
COC(=O)c1ccc2c(c1)C1CC(C)(O2)N(c2cccc(Cl)c2)C(=O)N1 (stereo not drawn)
 : -2.7 | -0.5
COc1cccc(C(CN2CCN(S(=O)(=O)c3ccc(Cl)cc3)CC2)OCc2ccc(C#N)cc2)c1 (stereo not drawn)
 : 29.3 | 12.8
N#Cc1ccccc1-c1ccc(COc2coc(CN3CCN(C(=O)c4cc(F)ccc4Cl)CC3)cc2=O)cc1
 : -1.2 | 1.3
Cc1ccc(C(=O)N2C(C(=O)NCc3ccco3)COC23CCN(C(=O)CC(C)C)CC3)cc1 (stereo not drawn)
 : 0.1 | 4.5
CCN1CCN(c2nc(N)c([N+](=O)[O-])c(NCc3ccco3)n2)CC1
 : 0.1 | 0.6
COc1cccc(-c2nc3cccc(C)n3c2NCc2ccccc2)c1
 : 1.1 | 12.0
O=C1CC(c2ccccc2)Cc2nc3ncnn3cc21 (stereo not drawn)
 : 4.7 | -2.9
CC(=O)c1ccc(NC(=O)CCc2c(C)nn(-c3nc(C)c(C)c(=O)[nH]3)c2C)cc1
 : 10.5 | 4.8
CC1CCCC(NC(=O)c2cc(S(C)(=O)=O)ccc2Cl)C1C (stereo not drawn)
 : -4.4 | -6.1
COc1ccccc1Oc1cnn(C)c(=O)c1Nc1cccc(C(=O)NCCc2ccccn2)c1
 : -0.4 | 5.8
Cc1cc(C)cc(Cn2c(C)c(C(=O)NCc3cccc([N+](=O)[O-])c3)sc2=O)c1
 : -10.2 | -6.5
CN(C)c1ccc(NC(=O)c2cccs2)cc1CN(Cc1ccco1)C(=O)C1CC1
 : 23.1 | 31.5
Nc1c(Cl)cncc1Cl
 : -9.1 | -18.4
CCCc1ccc(-c2ccc(-c3noc(-c4cccc(Br)c4)n3)cc2)cc1
 : -5.7 | -11.1
COC(=O)C1(C)CCN(c2nc(-c3cccnc3)nc3c2cnn3C)CC1
 : 3.1 | 1.2
CN1CC2(CCN(Cc3cc(=O)n4cccc(O)c4n3)CC2)CC1C(=O)O (stereo not drawn)
 : 5.6 | 7.1

Six entries from above, sorted by SMILES length, rising.
Results follow in this order: NPYLR7 agonist | NPYLR7 agonist max-min
Nc1c(Cl)cncc1Cl
 : -9.1 | -18.4
COC(=O)C1(C)CCN(c2nc(-c3cccnc3)nc3c2cnn3C)CC1
 : 3.1 | 1.2
CCCc1ccc(-c2ccc(-c3noc(-c4cccc(Br)c4)n3)cc2)cc1
 : -5.7 | -11.1
CN(C)c1ccc(NC(=O)c2cccs2)cc1CN(Cc1ccco1)C(=O)C1CC1
 : 23.1 | 31.5
COc1ccccc1Oc1cnn(C)c(=O)c1Nc1cccc(C(=O)NCCc2ccccn2)c1
 : -0.4 | 5.8
Cc1cc(C)cc(Cn2c(C)c(C(=O)NCc3cccc([N+](=O)[O-])c3)sc2=O)c1
 : -10.2 | -6.5
